# Screening data as filed in PubChem BioAssay.
# PINK1 modulator = changes PINK1 expression; PINK1 immunofluorescence, high-content cytometry, 24 h; 0.2% of 410,000 active; Potency, µM (top dose mostly 76.6 µM), without a hit: top-dose activation (PINK1 increase), hits mostly activators; AID 624263; active = well fitted activation curve with a large enough effect; inconclusive = small, poorly fitted or top-dose-only effect; inactive = flat fitted curve, though single readings scatter; cell line not stated here;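 further: potency means the concentration at half of the fitted maximal effect; % of control where 0% means no effect; nearly all actives have a fitted effect of over 65% in size; a mitochondrial uncoupler was the plate control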
#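 PINK1 protein, normally rapidly degraded, was detected by immunofluorescence after 24 hour compound treatment of a stable cell line. Titration data (5 concentrations) came from laser-scanning cytometry, with CCCP-treated wells as controls.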
# Six1-Eya2 blk = inhibitors of human Six1/Eya2 interaction; Q15475+O00167; AlphaScreen GST-Six1/His-Eya2 binding, biochemical; stronger effect = lower value; control for the full effect not named in the record; activity change, % (no concentration beside the values); 0.56% of 360,000 active; in the data active = activity change below about -65%; inconclusive = about -30% to -65%; inactive = above about -30%; further: on the % scale 0 is the no-effect control and ±100 the full control effect; compound concentration not given in the record
#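 Six1/Eya2 binding was read as AlphaScreen signal after compounds were pinned into GST-Six1 plus His-tagged Eya2 (5X stock 250/500 nM) in pH 8.0 Tris/NaCl/TCEP buffer, beads added, then incubated 1 h, 37 C, dark.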
# TRPML1 inh = blocks the human TRPML1 channel. 0.02% of 390,000 active. TRPML1-inducible cells, Ca2+ dye fluorescence, FDSS; stronger effect = lower value; inhibition of EC80 agonist-evoked calcium signal. AID 624415. activity change, negative = inhibition, % (concentration not given with the values); in the data active means activity change below about -50%; inconclusive means about -30% to -50%; inactive means above about -30%;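 further: stimulus is agonist 54-4 at its EC80 concentration; on the % scale 0 is the no-effect control and ±100 the full control effect; compound concentration not given in the record; the text of the record puts the active cut at -80%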
# Target sequence (Q9GZU1 whole entry, looked up): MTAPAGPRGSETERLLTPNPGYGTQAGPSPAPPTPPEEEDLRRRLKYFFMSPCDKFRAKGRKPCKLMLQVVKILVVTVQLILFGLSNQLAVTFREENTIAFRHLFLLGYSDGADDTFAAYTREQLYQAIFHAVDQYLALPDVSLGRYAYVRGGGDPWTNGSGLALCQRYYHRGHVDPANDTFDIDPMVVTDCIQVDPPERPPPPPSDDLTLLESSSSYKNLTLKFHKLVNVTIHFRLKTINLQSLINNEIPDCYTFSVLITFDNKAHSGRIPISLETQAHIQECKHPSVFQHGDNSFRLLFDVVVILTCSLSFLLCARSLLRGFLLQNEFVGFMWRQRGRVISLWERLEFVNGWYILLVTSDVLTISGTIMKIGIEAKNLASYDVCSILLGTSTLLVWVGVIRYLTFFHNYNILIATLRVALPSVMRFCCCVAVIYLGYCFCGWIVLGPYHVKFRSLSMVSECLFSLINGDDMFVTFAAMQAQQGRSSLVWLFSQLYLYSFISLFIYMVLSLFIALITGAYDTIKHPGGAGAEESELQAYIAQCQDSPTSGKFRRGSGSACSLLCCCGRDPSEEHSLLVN
#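 Tet-induced TRPML1-DL cells loaded with Ca8 no-wash calcium dye were read kinetically on FDSS. Compound addition was followed by EC80 agonist 54-4 (4 uM final); inhibition was read over 110 s.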
# TRPML1 agonist = agonists of human TRPML1 channel; Q9GZU1; TRPML1-expressing cells, Ca2+ dye fluorescence, FDSS; host cell line not named in the record; reference of the full effect not given here; activation, % (concentration not given with the values); 0.12% of 410,000 active; in the data active = activation above about 50%; inconclusive = about 30% to 50%; inactive = below about 30%; further: 0% is about no effect; the text of the record puts the active cut at 80%
#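 Kinetic FDSS Ca2+ read in Tet-induced TRPML1-DL cells (ABD Ca8 dye plus quencher, 45-90 min RT loading): baseline, then compound, then 110 s agonist window; EC80 agonist 54-4 at 4uM final added afterwards for a 110 s antagonist window.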
# CtBP-E1A inh = CtBP/E1A binding inhibition; AlphaScreen GST-E1A/His-CtBP binding, 1536-well; stronger effect = lower value; control for the full effect not named in the record; activity change, % (concentration not given with the values); 0.49% of 340,000 active; AID 651724; in the data active means activity change below about -65%; inconclusive means about -30% to -65%; inactive means above about -30%; further: on the % scale 0 is the no-effect control and ±100 the full control effect
#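 Homogeneous bead-based format: GST-tagged E1A captured on glutathione donor beads, His-tagged CtBP on nickel acceptor beads; compounds precede bead addition by 2 h at 37 °C.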
# D2 ag = human D2 receptor agonism in beta-arrestin assay. P14416. 0.084% of 360,000 active. DiscoveRx PathHunter D2 beta-arrestin, luminescence, 90 min; 100% = 57 uM dopamine signal. activation, % (no concentration beside the values); in the data active = activation above about 40%; inconclusive = about 15% to 40%; inactive = below about 15%; further: compound concentration not given in the record; the text of the record calls up to 30% inactive
# Target sequence (P14416 whole entry, looked up): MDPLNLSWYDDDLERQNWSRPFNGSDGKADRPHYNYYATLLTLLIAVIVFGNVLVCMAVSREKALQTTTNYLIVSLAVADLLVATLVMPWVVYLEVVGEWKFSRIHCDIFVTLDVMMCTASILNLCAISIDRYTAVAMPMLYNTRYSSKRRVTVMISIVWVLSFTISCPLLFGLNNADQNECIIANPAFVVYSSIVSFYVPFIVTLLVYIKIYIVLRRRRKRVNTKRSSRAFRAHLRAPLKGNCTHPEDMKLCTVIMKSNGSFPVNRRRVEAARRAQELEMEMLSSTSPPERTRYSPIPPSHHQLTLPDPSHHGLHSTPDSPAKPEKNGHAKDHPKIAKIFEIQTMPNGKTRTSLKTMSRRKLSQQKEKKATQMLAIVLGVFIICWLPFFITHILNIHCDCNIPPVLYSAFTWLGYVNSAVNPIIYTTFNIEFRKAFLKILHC
#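 DiscoveRx PathHunter D2 beta-arrestin cells (2,100/well) attached overnight, then compound-stimulated 90 min at 37 C in HBSS/10 mM HEPES/0.1% Tween-20 buffer; beta-galactosidase complementation read by luminescence after 1 h at ambient temperature. Dopamine 57 uM final (EC100) as control.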
# An asterisk follows results filed as active; ? = inconclusive; · = no result given; & = joins results of further samples; [ ] = dose if it differs, or a comment.
item	mol	PINK1 modulator	Six1-Eya2 blk	TRPML1 inh	TRPML1 agonist	CtBP-E1A inh	D2 ag
1	CC(=O)c1c(C)[nH]c(C(=O)Nc2cc(C)cc(C)c2)c1C	5.6%	-3	-14	1.9	1	0.8
2	O=c1[nH]c2cc3ccccc3cc2nc1-c1nnnn1Cc1ccccc1	-0.2%	-27	·	0.3	-11	·
3	CCC(c1nnnn1C1CCCC1)N(Cc1cccs1)Cc1cc2cc(C)ccc2[nH]c1=O (stereo not given)	4.5%	-9	16	0.5	6	-3.5
4	Cc1cccc(N2CCN(C(=O)c3oc(=O)c4ccccc4c3-c3ccccc3)CC2)c1C	-0.6%	·	-17	-0.7	·	·
5	Clc1ccc(C2[C@H]3CN(Cc4cccnc4)[C@H](c4ccccc4)C34CC2(c2cccnc2)C4)cn1 (stereo not given in full)	13%	0	23	1.0	·	-3.8
6	CCCCNC(=O)CCCn1c(=O)[nH]c2ccc(Br)cc2c1=O	-1.7%	7	-3	1.1	-5	-0.6
7	CCOC(=O)CCCCCC(=O)Nc1ccc2c(c1)C(=O)N([C@@H](C)CO)C[C@H](C)[C@H](CN(C)C(=O)Nc1ccc(C(F)(F)F)cc1)OCCCC[C@H](C)O2	-0.1%	-3	·	·	1	-2.3
8	Cc1cc(C)n2c(SCc3ccccc3Cl)nnc2n1	-0.1%	1	32	2.4	1	-2.5
9	COc1cc(OC)cc(C(=O)N[C@H](C(=O)OCC(=O)Nc2ccc(C(N)=O)cc2)C(C)C)c1	2.1%	0	38	0.3	3	-0.4
10	CCCCS(=O)(=O)Nc1ccc(N2CCOCC2)c(S(=O)(=O)N2CCOCC2)c1	0.7%	1	-4	0.9	16	-0.7
11	CCC(=O)Nc1nnc(S(=O)(=O)N(C)c2cc(C)cc(C)c2)s1	1.9%	0	-6	1.6	·	-2.1
12	O=C1CN(S(=O)(=O)c2cc(Cl)ccc2Cl)CCN1	0.4%	23	7	-0.3	-9	-0.6
13	Cc1cc(C(=O)N2CCc3ccccc32)n(-c2ccccc2)n1	3.8%	7	14	-1.2	1	-7.2
14	O=C(Nc1cccc2c1CCCC2)c1cc(C2CCCCN2C(=O)CCCc2ccccc2)on1 (stereo not given)	-0.1%	-7	·	-0.1	-9	-3.3
15	CCOCCCNC(=O)C(Cc1ccccc1)NC(=O)c1ccco1 (stereo not given)	0.2%[38.3 µM]	4	4	-0.4	1	-0.7
16	CC(=O)C1=C(C)NC(=O)NC1c1cc(Br)ccc1OCC(N)=O (stereo not given)	0.0%	5	16	-0.5	-1	-1.6
17	CCOP(=O)(OCC)c1nc(-c2ccc(Cl)cc2Cl)oc1N1CCOCC1	0.1%	2	-15	1.7	·	-3.2
18	Cc1ccc(CNC(=O)C(C)n2nc(C)c3sc4ccccc4c3c2=O)cc1 (stereo not given)	0.3%	·	16	4.3	·	·
19	O=C(NCCCN1CCOCC1)c1cccs1	-2.9%[38.3 µM]	1	-3	-0.3	-2	-3.1
20	Cc1ccc(C2(C)CC(C)(C)N(C(=O)CSc3nnc(C)s3)c3ccccc32)cc1 (stereo not given)	10%	-14	32	-0.4	1	0.7
21	COc1ccc(C(=O)Nc2nc3ccccc3s2)c(OC)c1	1.8%	-6	-10	0.8	-6	-0.5
22	CC1(C)CCC[C@@]2(C)CC=C(C(=O)O)[C@@H]3C[C@]312	1.0%	9	4	0.2	-1	2.4
23	CCc1ccc(CN(C)C(C)C(=O)NCc2ccccc2)cc1 (stereo not given)	5.7%	4	28	-0.4	7	-1.4
24	O=c1c2cc(-c3ccccc3)sc2ncn1-n1cccc1	0.8%	9	-2	-1.1	18	-1.1
25	CN(Cc1cn[nH]c1-c1ccc2c(c1)OCO2)C1CCOCC1	2.1%	5	0	0.4	-17	-1.4
26	CCN(CCO)Cc1cn[nH]c1-c1ccc(C)c(C)c1	-1.0%	-1	-1	-0.2	7	-1.5
27	COc1ccc(F)cc1-c1cc(NC(C)=O)c2ncc(-c3cc(OC)c(OC)c(OC)c3)n2c1	11%	-17	·	0.2	-14	-2.2
28	O=C(O)c1cccc(NS(=O)(=O)c2cc(S(=O)(=O)c3ccc(Cl)cc3)ccc2Cl)c1	-0.2%	2	-14	0.1	1	-5.2
29	O=S(=O)(Nc1ncccn1)c1ccc(NC(=S)NCCc2ccc(Cl)cc2)cc1	-1.8%	-4	33	-0.3	0	0.8
30	CCCN1C(=O)/C(=c2\sc3nc(=O)c(Cc4ccc(C)cc4)nn3c2=O)c2ccccc21	-2.1%	11	-17	0.6	-5	-7.3
31	COc1cccc(NC(=O)CN(C)C(=O)CNC(=O)c2ccc(C)s2)c1	2.8%	-1	-5	-0.6	0	-2.4
32	Cc1ccc(S(=O)(=O)N2CCC[C@H]2C(=O)Oc2ccccc2)cc1	1.4%	7	5	-0.9	7	-0.9
33	O=C(N1CCN(c2cccc(Cl)c2)CC1)C1(c2cccs2)CCOCC1	-0.3%	8	23	1.2	-16	1.0
34	Cc1ccc(OCC(=O)Nc2nnc(S(=O)(=O)N3CCCCC3)s2)cc1	1.9%	-18	-7	-0.4	·	1.9
35	CC(=O)c1ccc(-c2nc3ccccc3n2C)o1	2.6%&-0.6%	-4	57	-0.5&-0.7	-2	-3.0
36	O=C1CCC2CCCCC2(O)O1 (stereo not given)	0.4%	0	41	-0.7	32	-1.1
37	CCCC(=O)Nc1c(O)c2ccccc2[nH]c1=O	0.4%	9	-2	-0.2	-1	-0.9
38	Cc1nc2ncnn2c(C)c1CCC(=O)NCCC1=CCCCC1	0.7%	1	1	0.4	1	-5.5
39	O=C(CSc1nnc2ccccn12)c1ccc(Cl)cc1	-2.1%	3	33	0.5	·	-4.3
40	Cc1ccc2oc(-c3cccc(NC(=O)c4sc5c([N+](=O)[O-])cccc5c4Cl)c3)nc2c1	-1.5%	·	57	-0.3	·	·

# Only TRPML1 inh and TRPML1 agonist, for 4 of the compounds above:
entry | canonical_smiles | TRPML1 inh | TRPML1 agonist
36 | O=C1CCC2CCCCC2(O)O1 (stereo not given) | 41 | -0.7
37 | CCCC(=O)Nc1c(O)c2ccccc2[nH]c1=O | -2 | -0.2
38 | Cc1nc2ncnn2c(C)c1CCC(=O)NCCC1=CCCCC1 | 1 | 0.4
39 | O=C(CSc1nnc2ccccn12)c1ccc(Cl)cc1 | 33 | 0.5

# Part of the list above in order of heavy-atom count, rising.
item	mol	PINK1 modulator	Six1-Eya2 blk	TRPML1 inh	TRPML1 agonist	CtBP-E1A inh	D2 ag
18	Cc1ccc(CNC(=O)C(C)n2nc(C)c3sc4ccccc4c3c2=O)cc1 (stereo not given)	0.3%	·	16	4.3	·	·
10	CCCCS(=O)(=O)Nc1ccc(N2CCOCC2)c(S(=O)(=O)N2CCOCC2)c1	0.7%	1	-4	0.9	16	-0.7
20	Cc1ccc(C2(C)CC(C)(C)N(C(=O)CSc3nnc(C)s3)c3ccccc32)cc1 (stereo not given)	10%	-14	32	-0.4	1	0.7

# (continued)
item	mol	PINK1 modulator	Six1-Eya2 blk	TRPML1 inh	TRPML1 agonist	CtBP-E1A inh	D2 ag
41	COc1cc(C(=O)Nc2ccc(S(=O)(=O)Nc3onc(C)c3C)cc2)cc(OC)c1OC	-0.4%	-15	2	-0.5	-5	-3.1
42	COc1ccc(N2CCN(C(=O)Oc3ccc([N+](=O)[O-])cc3)CC2)cc1	-0.2%	-27	·	-0.6	-24	·
43	CCOc1ccccc1N1CCN(Cc2ccc(OC)c(OC)c2OC)CC1	-2.6%[38.3 µM]	-2	2	1.0	-4	-1.4
44	CCOC(=O)CNC(=O)CSc1nc2c(C)cccc2cc1CC	-1.0%	34	-15	2.8	0	-1.6
45	CC(C)c1ccc2nc(NC(=O)C3CC3)sc2c1	2.2%	-1	-2	-0.3	8	2.8
46	O=[N+]([O-])c1cc([N+](=O)[O-])c(Oc2c(F)cccc2F)cc1NN1CCCCC1	1.7%	3	-5	0.3	·	-3.9
47	Cc1cc(S(=O)(=O)NCCc2ccncc2)cc(C)c1F	0.2%	4	18	-0.7	8	-3.0
48	O=C(NCc1ccccn1)Nc1ccccc1Cl	-1.2%	-2	20	-0.3	-6	-6.3
49	CC(C)n1nnnc1SCC(=O)Nc1ccc2c(c1)OCO2	1.0%	4	3	-0.7	2	-0.6
50	CCc1ccc(C(=O)CC2(O)C(=O)N(CN3CCOCC3)c3ccccc32)cc1 (stereo not given)	2.2%	4	-8	-0.9	7	-0.6
51	CCOP(=O)(OCC)c1cccc(P(=O)(c2ccccc2)c2ccccc2)c1O	0.1%	20	-3	3.3	7	-0.1
52	COc1ccc(NC(=O)c2oc3ccccc3c2CSC)cc1S(=O)(=O)N1CCOCC1	1.1%	6	0	-0.3	2	-0.5
53	CCOC(=O)C1(C)NC(c2ccc(OC)cc2OC)C2C(=O)N(CC)C(=O)C21 (stereo not given)	0.0%	1	12	0.0	0	0.0
54	COc1cc2nc(C3CCC3)n(N)c(=O)c2cc1OC	-1.2%	24	?	1.4	0	4.6
55	O=C(C1CCCN(c2nnc(-n3cccc3)s2)C1)N1CCN(c2ccccc2)CC1 (stereo not given)	5.7%	-30	16	-0.1	1	13
56	CC(C)c1ccc(NC(=O)CC2Oc3ccccc3NC2=O)cc1 (stereo not given)	4.3%&-1.0%	2	22&42	2.1&2.7	·	1.1
57	CC(C)C(=O)N1c2nc(C(C)C)nn2C2(CCCCC2)[C@@H]2CCCC[C@@H]21	0.3%	·	6	1.0	·	·
58	COc1ccc(Nc2ncnc3ccc(Br)cc23)cc1OC	-1.1%	-10	17	0.9	-19	1.4
59	CC(C)(C)C(=O)NC(=S)NNC(=O)C(c1ccccc1)c1ccccc1	1.5%	-4	·	·	-5	-16
60	O=C1CC[C@@H](O)CCN1CC[C@H](Sc1ccccc1)c1ccccc1	-0.1%	-3	-9	-0.3&0.3	-2	-4.7
61	CCNC(=O)CN1C(=O)NC(Cc2ccccc2)(Cc2ccccc2)C1=O	0.6%	-3	19	-0.3	3	-4.9
62	CC1(C(=O)NC2CCCCC2)Cc2ccccc2C(=O)N1Cc1ccccc1Cl (stereo not given)	0.1%	·	2	0.1	·	·
63	Cc1ccc(C(C(=O)NC2CCCC2)N(Cc2ccc3c(c2)OCO3)C(=O)Cc2cccs2)cc1 (stereo not given)	3.8%	-1	-1	2.1	0	-3.4
64	COc1cc(C#CC#CCN2CCCCC2)ccc1O	3.0%[38.3 µM]	-22	-27	-0.4	0	-3.2
65	CC(=O)c1c(C(C)=O)c(C)n(-c2cccc([N+](=O)[O-])c2)c1C	1.6%	12	-16	0.6	6	-3.2
66	COc1ccc(Br)cc1CNC(=O)Cc1cccs1	-1.7%	8	-17	-0.3	9	-1.9
67	CCOC(=O)COc1ccc2c(=O)c(-c3ccc(OC)c(OC)c3)c(C(=O)OCC)oc2c1	1.9%	1	-12	-0.3	-4	-2.0
68	CCOC(=O)c1cccc(NC(=O)Cn2ncc3c4ccccc4n(Cc4ccccc4)c3c2=O)c1	3.7%	·	-17	1.5	·	·
69	CC1CN(C(=O)N2CCC(C(=O)NCCC3=CCCCC3)CC2)c2cc(Cl)ccc2O1 (stereo not given)	3.5%	·	12	-0.5	·	·
70	COc1ccccc1CCNC(=O)C(=O)NCC1OCCN1S(=O)(=O)c1ccc(C)cc1 (stereo not given)	2.0%	-1	36	0.6	3	0.1
